Source: PubChem BioAssay (National Center for Advancing Translational Sciences (NCATS))
PINK1 modulator: A Quantitative High throughput Screen to Identify Chemical Modulators of PINK1 Expression | PINK1 immunofluorescence, high-content cytometry, 24 h | Potency, µM (series often up to 76.6 µM), inactives show at the top dose activation (PINK1 increase), actives largely listed as activators | actives 0.2% (n = 410,000) | AID 624263, 2012; active = well fitted activation curve with a large enough effect; inconclusive = small, poorly fitted or top-dose-only effect; inactive = flat fitted curve, though single readings scatter; cell line not stated here;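 note: potency is the fitted concentration of half-maximal effect; % of control where 0% means no effect; nearly all actives have a fitted effect of over 65% in size; a mitochondrial uncoupler was the plate control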
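A stable cell line was treated with compounds at 5 concentrations for 24 hours, with CCCP as control. PINK1 levels and mitochondrial localization were measured by immunofluorescence with mitochondrial, cell and nuclear markers after fixation, read by laser-scanning cytometry.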
D2 ag: Beta-Arrestin HTS for Positive Allosteric Modulators of the Human D2 Dopamine Receptor: Agonists; activation, % (test concentration not listed); DiscoveRx PathHunter D2 beta-arrestin, luminescence, 90 min; 100% = 57 uM dopamine signal; actives 0.084% (n = 360,000); D(2) dopamine receptor (Homo sapiens), P14416; AID 624465, 2012; in the data active = activation above about 40%; inconclusive = about 15% to 40%; inactive = below about 15%; note: compound concentration not given in the record; the text of the record calls up to 30% inactive
Target sequence (P14416 whole entry, looked up): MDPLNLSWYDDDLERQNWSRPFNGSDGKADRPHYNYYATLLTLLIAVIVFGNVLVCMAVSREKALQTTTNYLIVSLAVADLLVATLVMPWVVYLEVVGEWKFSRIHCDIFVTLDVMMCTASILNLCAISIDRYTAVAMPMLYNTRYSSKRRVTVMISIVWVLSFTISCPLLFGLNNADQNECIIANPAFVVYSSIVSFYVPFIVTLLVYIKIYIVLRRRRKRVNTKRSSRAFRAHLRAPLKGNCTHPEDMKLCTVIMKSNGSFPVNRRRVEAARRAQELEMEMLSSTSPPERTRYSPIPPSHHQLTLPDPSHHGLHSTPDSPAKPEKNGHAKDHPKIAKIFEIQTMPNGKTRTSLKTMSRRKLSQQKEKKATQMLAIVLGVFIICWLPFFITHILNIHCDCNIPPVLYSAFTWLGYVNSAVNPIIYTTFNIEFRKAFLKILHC
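Agonist mode: compounds alone added to overnight-plated D2 PathHunter cells for 90 min at 37 C, with 57 uM final dopamine (EC100) defining full response. Beta-arrestin recruitment detected by chemiluminescent reagent, read after 1 h at ambient temperature.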
CtBP-E1A inh: qHTS Assay for Inhibitors of the CtBP/E1A Interaction | AID 651724, 2012 | actives 0.49% (n = 340,000) | CtBP / adenovirus E1A interaction (AlphaScreen) | activity change, % (test concentration not listed) | AlphaScreen GST-E1A/His-CtBP binding, 1536-well; hits give low values; control for the full effect not named in the record; in the data active means activity change below about -65%; inconclusive means about -30% to -65%; inactive means above about -30%; note: % is set by controls: 0 for no effect and ±100 for the full control effect; compound concentration not given in the record
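AlphaScreen with 125 nM GST-E1A and 125 nM His-CtBP (5X stocks) in Tris pH 8.0, 300 mM NaCl, BSA, Tween 20, TCEP. Compounds preincubated 2 h at 37 deg C, then glutathione donor/nickel acceptor beads added for 1 h at 37 deg C in dark.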
D2 PAM: Beta-Arrestin HTS for Positive Allosteric Modulators of the Human D2 Dopamine Receptor: Potentiators; D(2) dopamine receptor (Homo sapiens), P14416; DiscoveRx D2 beta-arrestin cells, luminescence, 90 min; 100% = 57 uM dopamine signal; potentiation, % (concentration not given with the values); actives 0.23% (n = 360,000); AID 624464, 2012; active = potentiation of 50% or more; inconclusive = 30% to 50%; inactive = 30% or less;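 note: compound concentration not given in the record; tested on top of an EC20 dose of dopamine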
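PathHunter D2 cells, attached overnight at 37 deg C, received compound in DMSO plus dopamine at EC20 (50 nM final) for 90 min at 37 deg C. Beta-arrestin recruitment was read as luminescence after 1 h with detection reagent at ambient temperature.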
Six1-Eya2 blk: qHTS Assay for Inhibitors of the Six1/Eya2 Interaction. AID 651725, 2012. AlphaScreen GST-Six1/His-Eya2 binding, biochemical; hits give low values; control for the full effect not named in the record. Homeobox protein SIX1 (Homo sapiens) + Protein phosphatase EYA2 (Homo sapiens), …. actives 0.56% (n = 360,000). activity change, % (no concentration beside the values); in the data active = activity change below about -65%; inconclusive = about -30% to -65%; inactive = above about -30%; note: % is set by controls: 0 for no effect and ±100 for the full control effect; compound concentration not given in the record
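Six1/Eya2 binding was read as AlphaScreen signal after compounds were pinned into GST-Six1 plus His-tagged Eya2 (5X stock 250/500 nM) in pH 8.0 Tris/NaCl/TCEP buffer, beads added, then incubated 1 h, 37 C, dark.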
TRPML1 ag: qHTS for Agonists of the Human Mucolipin Transient Receptor Potential 1 (TRPML1); Mucolipin-1 (Homo sapiens), Q9GZU1; TRPML1-expressing cells, Ca2+ dye fluorescence, FDSS; host cell line not named in the record; reference of the full effect not given here; activation, % (no concentration beside the values); actives 0.12% (n = 410,000); AID 624414, 2012; in the data active = activation above about 50%; inconclusive = about 30% to 50%; inactive = below about 30%; note: 0% is about no effect; the text of the record puts the active cut at 80%
Target sequence (Q9GZU1 whole entry, looked up): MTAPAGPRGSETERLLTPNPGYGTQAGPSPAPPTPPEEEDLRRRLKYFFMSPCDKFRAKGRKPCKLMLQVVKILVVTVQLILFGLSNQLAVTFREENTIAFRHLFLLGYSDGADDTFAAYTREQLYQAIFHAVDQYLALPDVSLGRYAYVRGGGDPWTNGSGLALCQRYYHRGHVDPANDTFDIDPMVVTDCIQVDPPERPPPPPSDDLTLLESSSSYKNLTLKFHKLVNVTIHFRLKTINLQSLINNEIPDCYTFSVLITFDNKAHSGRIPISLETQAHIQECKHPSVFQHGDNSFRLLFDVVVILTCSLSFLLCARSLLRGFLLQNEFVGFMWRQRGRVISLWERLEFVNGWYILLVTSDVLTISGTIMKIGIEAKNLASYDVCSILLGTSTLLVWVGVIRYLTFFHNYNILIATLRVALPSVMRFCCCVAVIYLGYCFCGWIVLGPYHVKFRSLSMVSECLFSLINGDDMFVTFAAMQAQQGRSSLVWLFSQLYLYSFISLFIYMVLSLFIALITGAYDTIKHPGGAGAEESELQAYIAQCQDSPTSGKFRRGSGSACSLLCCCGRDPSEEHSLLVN
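In this qHTS format, compounds were pin-transferred onto Ca8-dye-loaded TRPML1-DL cells induced with Tet overnight, and intracellular Ca2+ fluorescence was recorded kinetically for 110 s after a 10 s baseline. A subsequent 4uM final 54-4 (EC80) addition followed by a second 110 s read served as the antagonist phase.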
An asterisk follows results filed as active; u = inconclusive; x = not tested or not shown; & = joins results of further samples; [ ] = dose if it differs, or a comment.

smiles | PINK1 modulator | D2 ag | CtBP-E1A inh | D2 PAM | Six1-Eya2 blk | TRPML1 ag
CN(CC(=O)OCC(=O)c1c(N)n(C)c(=O)n(C)c1=O)S(=O)(=O)c1ccc(Cl)cc1 | -0.7% | 0.6 | -14 | -2 | -3 | -0.1
CCc1ccc(-c2cc(C)no2)cc1S(=O)(=O)N1CCN(c2ccccc2OC)CC1 | 1.4% | -1.2 | -79* | -1 | u | 0.5
Cc1cccc(CN2CCCC(C(=O)N3CCCCC3)C2)c1 (stereo not drawn) | 0.4% | -0.9 | x | -9 | -2 | -0.5
COc1ccc(C(=O)N(CCc2ccccc2)Cc2cccs2)c(OC)c1 | 0.7% | 1.5 | 0 | -5 | -15 | 1.7
CCOc1cc(N)c(Cl)cc1C(=O)NCC1CN(Cc2ccc(F)cc2)CCO1 (stereo not drawn) | 1.3% | -6.3 | -9 | -35 | -15 | 1.2
CN1C(=O)CCC1(O)c1ccccc1 (stereo not drawn) | 1.2%[38.3 µM] | -3.7 | 4 | 4 | 4 | 0.4
COc1ccc(-c2nnc(-c3ccc(OCC(C)C)cc3)o2)cc1 | 18% | -4.8 | 1 | -5 | -1 | -0.1
CCCCNC(=O)Cn1nc(-c2ccc(C)cc2)ccc1=O | -1.0% | -6.2 | 2 | -5 | -6 | x
COC(=O)c1ccc(Cl)c(NC(C)=O)c1 | u | -0.7 | -22 | -16 | 1 | 0.7
COc1ccc(CN(C)CC(=O)Nc2ccc(SC(F)F)cc2)cc1OC | -0.8% | 0.8 | -5 | 2 | 0 | 1.8
CC(=O)C1CCC2C3CCC4CC(OC(=O)CCC(=O)O)CCC4(C)C3C(=O)CC12C (stereo not drawn) | -0.8% | -2.2 | -5 | -4 | 6 | 0.3
Cc1ccccc1COn1nnc2ccc(S(=O)(=O)N3CCOCC3)cc21 | -1.7% | -2.6 | 0 | -3 | 6 | 0.7
CCOC(=O)c1cnc(SC2CCc3ccccc3C2=O)nc1N (stereo not drawn) | -3.1% | 9.4 | -8 | u | 0 | 5.2
CCc1cccc(C)c1NC(=O)COC(=O)C1CC(=O)N(CCc2ccc(OC)c(OC)c2)C1 (stereo not drawn) | 1.7% | -0.1 | 5 | -13 | 5 | -1.0
COCCCn1c(SCC(=O)NC(C)(C)C)nnc1-c1cccs1 | -0.5% | -2.8 | 5 | 1 | 1 | -0.8
COCCN(C(=O)COC(=O)CCSc1ccc(F)cc1)c1c(N)n(Cc2ccccc2)c(=O)[nH]c1=O | 3.8% | -7.2 | 5 | -17 | 6 | -0.8
CCOC(=O)c1oc2ccccc2c1NC(=O)c1ccc(S(=O)(=O)N2CCCC2)cc1 | 9.0%[38.3 µM] | -3.5 | 2 | -3 | 2 | -0.1
O=C(NCc1cccc(F)c1)C1CCN(S(=O)(=O)Cc2ccccc2)CC1 | -0.8% | 0.1 | -3 | 4 | 13 | 0.3
N#Cc1c(-c2ccccc2Cl)c2c([nH]c1=O)-c1ccccc1OC2 | -0.4% | -8.3 | 13 | -9 | 3 | 0.5
Nc1c(C(=O)NCc2ccco2)nnn1CC(=O)Nc1ccc2c(c1)OCO2 | 4.7% | -1.2 | x | -12 | 12 | 0.0
CCN(c1ccccc1)S(=O)(=O)c1cc(C(=O)OC(C)C(=O)Nc2ccc3c(c2)OCCO3)ccc1C (stereo not drawn) | 0.0% | -27 | x | -12 | -12 | -0.1
CCOc1ccc(/C=N/OCC(=O)NCc2ccco2)cc1 | 0.9% | -4.2 | 7 | 3 | -5 | -0.6
COc1cc(C(CCN2CCCCC2)c2c(OC)cc(OC)c3c(C)cc(=O)oc23)cc(OC)c1OC (stereo not drawn) | 1.7% | -3.0 | 0 | -21 | -3 | -0.3
Cc1noc(C)c1C(=O)NC(C)C1CCCO1 (stereo not drawn) | -1.4%[38.3 µM] | -3.3 | 8 | -7 | 3 | 3.9
C=CCn1c(SC(C)C(=O)NCCC2=CCCCC2)nc2ccccc2c1=O (stereo not drawn) | 0.1% | 0.4 | 1 | -27 | 6 | 1.9
CCOc1ccc(C(=O)c2cccs2)cc1 | 0.0% | 0.1 | 7 | -1 | 33 | 0.2
COc1ccccc1CNC(=O)C1CC(c2ccccc2C(F)(F)F)=NO1 (stereo not drawn) | 0.7% | 1.0 | 2 | -8 | 1 | 0.2
O=C1CCN(CCc2ccccc2)CCN1[C@H](CO)c1ccccc1 | -0.4% | -5.5 | 7 | -17 | 3 | -0.1&0.1
COc1ccc(CNC(=O)C(=O)NCC2OCCN2S(=O)(=O)c2ccc(OC)c(OC)c2)cc1 (stereo not drawn) | 4.9% | -3.6 | 1 | 6 | 1 | 0.2
O=C(NNC(=O)c1cc2cc(Br)ccc2oc1=O)c1ccc(O)cc1 | -0.9% | -6.2 | -11 | -2 | -2 | 4.5
CS(=O)(=O)Nc1ccc(C2=NN(C(=O)c3ccco3)C(c3ccco3)C2)cc1 (stereo not drawn) | 6.0% | 3.0 | -5 | 9 | -14 | 1.3
Cn1c(CNS(=O)(=O)c2ccc(F)cc2)n[nH]c1=S | -0.7% | 2.6 | -9 | -19 | 10 | 3.2

Profiles as entered above:
Listed for `O=C1CCN(CCc2ccccc2)CCN1[C@H](CO)c1ccccc1` → PINK1 modulator: -0.4%; D2 ag: -5.5; CtBP-E1A inh: 7; D2 PAM: -17; Six1-Eya2 blk: 3; TRPML1 ag: -0.1&0.1
Listed for `COc1ccccc1CNC(=O)C1CC(c2ccccc2C(F)(F)F)=NO1` (stereo not drawn) → PINK1 modulator: 0.7%; D2 ag: 1.0; CtBP-E1A inh: 2; D2 PAM: -8; Six1-Eya2 blk: 1; TRPML1 ag: 0.2
Listed for `Cn1c(CNS(=O)(=O)c2ccc(F)cc2)n[nH]c1=S` → PINK1 modulator: -0.7%; D2 ag: 2.6; CtBP-E1A inh: -9; D2 PAM: -19; Six1-Eya2 blk: 10; TRPML1 ag: 3.2

(cont.)
smiles | PINK1 modulator | D2 ag | CtBP-E1A inh | D2 PAM | Six1-Eya2 blk | TRPML1 ag
COc1ccc(S(=O)(=O)c2c(O)cc(C)c(NS(=O)(=O)c3ccccc3)c2C)cc1 | -1.0% | -2.2 | 0 | -6 | -5 | 0.3
Clc1cccc(Cl)c1CSc1nnc(/C=C/c2ccccc2)o1 | 9.9% | -3.8 | 28 | -1 | 57 | 3.6
COc1cc(/C=C/C(=O)O)cc(S(=O)(=O)Nc2ccc3cn[nH]c3c2)c1OC | 0.3% | -1.5 | 10 | -3 | -1 | 1.3
COc1ccc(N(CC(=O)NCCC2=CCCCC2)S(=O)(=O)c2ccccc2)cc1 | 0.9% | -3.7 | 16 | -4 | 12 | 1.4
Cc1ccc([C@H]2C[C@H](O)[C@@H](n3cc(-c4ccc(F)cc4)nn3)CN2Cc2cccs2)cc1 | -0.7% | 0.0 | 0 | x | -1 | x
Cc1cccc(/N=C/c2ccccn2)n1 | 1.5% | -4.3 | x | -18 | 4 | -0.5
O=C(COC(=O)c1cc(S(=O)(=O)N2CCCC2)ccc1O)Nc1ccc(SC(F)F)cc1 | 29% | 7.8 | 0 | 0 | 1 | 1.5
CCOC(=O)N1CCN(C(=O)c2n[nH]c(=O)c3ccccc23)CC1 | -0.7% | -3.8 | 4 | -14 | 9 | 0.0
CC(C)C1C(=O)N(Cc2cn(CCC3OCCO3)nn2)CCS(=O)(=O)N1Cc1ccc(-c2ccc(Cl)c(Cl)c2)cc1 (stereo not drawn) | u | 1.6 | -4 | -15 | 6 | 3.3
CCOC(=O)c1cnn(CCOC(=O)c2cccc(F)c2)c1NC(=O)c1cccc(F)c1 | 5.4% | -4.8 | -23 | 4 | -2 | -0.1
COc1ccc2cc(C(c3nnnn3Cc3ccc(F)cc3)N3CCCCCC3)c(=O)[nH]c2c1 (stereo not drawn) | 7.8%[38.3 µM] | 0.0 | 0 | -4 | -1 | 1.7
CCc1nc2c(OCc3ccccc3C)cccn2c1N(C)C(=O)c1ccco1 | 0.3% | -5.0 | -1 | -4 | -1 | -1.1
CC1(C(=O)NS(=O)(=O)c2ccc(Cl)s2)CCN1C(=O)Cc1ccc(-c2ccccc2)cc1 (stereo not drawn) | -0.5% | -3.6 | 1 | -3 | 7 | -0.5
COc1ccccc1S(=O)(=O)CC(O)COc1ccccc1Cl (stereo not drawn) | 0.8% | -2.4 | 4 | -6 | -5 | 0.4
Cc1cc(NC(=O)CSc2nnc(COc3cccc(C)c3C)n2C)no1 | 8.2%[38.3 µM] | 1.1 | -3 | 5 | 3 | 0.7
C/C=C/c1ccc(OCC(=O)N(CCOC)c2c(N)n(CCCC)c(=O)[nH]c2=O)c(OC)c1 | 3.9% | -1.4 | -3 | 0 | 0 | -0.8
C1CC(=NN=C2CCSCC2)CCS1 | 0.2% | -1.6 | 3 | -4 | 5 | -0.3
COc1ccc(Nc2nc(Cl)nc(Nc3ccc(OC)cc3)n2)cc1 | -1.2% | 2.5 | -1 | -2 | 8 | 0.6
O=C(N/N=C/c1cc(Br)c(O)c(Br)c1)c1cccnc1 | 1.2% | -2.8 | -1 | -6 | 7 | -0.7
O=C(N/N=C/c1cn(Cc2ccccc2)c2ccccc12)c1cccnc1 | 6.2% | 3.6 | 3 | -6 | -3 | -0.8
COc1ccc(CNc2ccc(-c3ccccc3OC)nn2)cc1 | -3.0% | -1.4 | -1 | -10 | -1 | 2.0
CCCOc1ccc(N2C(=O)CC(N3CCN(c4nc5ccccc5s4)CC3)C2=O)cc1 (stereo not drawn) | 26% | 0.2 | 6 | -14 | -9 | 1.3
CCN(CC)CCNC(=O)c1ccc(-n2c(C)cc3c2CCCC3=O)cc1 | -1.2% | 1.7 | 0 | -6 | -12 | 0.6
CC1=NN(C(C#N)c2ccc(F)cc2)C(C)(C)C1 (stereo not drawn) | -1.3% | -2.4 | 8 | -2 | 6 | 2.8
CCc1ccccc1N1C(=O)C2C3C=CC(CC3)C2C1=O (stereo not drawn) | 1.1% | -3.6 | x | -3 | 7 | 1.6
CC1Cc2cc(S(=O)(=O)NCCC(=O)N(C)Cc3ccccc3)ccc2N1C(=O)C1CC1 (stereo not drawn) | 0.1% | 1.7 | x | -1 | -8 | -0.3
COc1ccccc1/C(C)=N/NC(=O)c1nnn(-c2nonc2N)c1C(C)C | -0.8% | 6.0 | -7 | -4 | 3 | 0.6
CN1CCN(C(=O)/C(=C\c2cccs2)NC(=O)c2cccs2)CC1 | 0.1% | -4.0 | 9 | -29 | -10 | 0.4

Compounds as they come. Share with any hit: about 1.3%.
